Source: PubChem (several laboratories)
Beta apoptosis – beta cell apoptosis inhibition; INS-1E cytokine-induced death, ATP luminescence, 48 h; percent of positive-control rescue, neutral wells zero; protection from apoptosis, % (concentration not given with the values); 300,000 compounds, 0.8% hits;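 active means all replicates at 75% or more, or half of them and the mean; inconclusive means half reach 75% but not the mean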;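 further: 0% = cytokine-treated negative control wells and 100% = positive control rescue; higher means more ATP so stronger rescue from cytokine killing; wells of about 40 µL received 100 nL stock; the first replicate is given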
UCH37 inh – inhibitors of human deubiquitinating enzyme UCH37; inhibition, % (test concentration not listed); purified proteasome/UCH37, Ub-AMC cleavage fluorescence; 330,000 compounds, 0.33% hits;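 active means mean of two replicates above 20%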;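 further: 0% = compound-free wells with enzyme and 100% = wells lacking proteasome; stock transfer was 100 nL into about 20 µL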
Target sequence (Q9Y5K5 whole entry, looked up): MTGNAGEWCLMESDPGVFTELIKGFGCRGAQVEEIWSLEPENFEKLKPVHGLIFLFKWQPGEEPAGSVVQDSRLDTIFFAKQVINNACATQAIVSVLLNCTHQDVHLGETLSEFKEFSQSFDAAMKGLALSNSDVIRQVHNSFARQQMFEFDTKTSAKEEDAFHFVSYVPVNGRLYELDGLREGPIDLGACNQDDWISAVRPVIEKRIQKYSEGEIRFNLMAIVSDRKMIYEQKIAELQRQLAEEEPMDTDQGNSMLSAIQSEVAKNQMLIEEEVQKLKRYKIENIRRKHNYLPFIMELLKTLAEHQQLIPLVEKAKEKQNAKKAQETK
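Signal – fluorescence, ex 355 nm, em 460 nm · System – Proteasome-bound UCH37 · Input – 0.15 nM proteasome as dispensed · Timing – 30 min preincubation with enzyme, 25 min cleavage at room temperature · Read-out basis – percent inhibition of cleavage signal versus uninhibited and no-proteasome wells · Medium – Tris-HCl pH 7.4 with ATP-MgCl2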
Bfl-1 A1 inh – inhibitors of the anti-apoptotic protein A1, read as caspase activation. MEF A1-2A-BIM cells, Caspase-Glo 3/7 luminescence, 3 h; percent of clofoctol response, vehicle zero. caspase activation, % (test concentration not listed). 330,000 compounds, 0.066% hits;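 active means over half of replicate activation scores above 10%, or exactly half above 10 with the replicate mean above 10; inconclusive means replicate mean below 10 yet half the replicates above 10; inactive means over half of replicates below 10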;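 further: wells of about 30 µL received 50 nL stock; many hits fall short of the cut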
T cruzi repl – T. cruzi replication inhibition; T. cruzi beta-gal in NIH3T3, luminescence, 90 h; inhibition, % (test concentration not listed); 300,000 compounds, 1.4% hits; AID 1885;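 active means mean inhibition across valid replicates above about 55%, limit read from the data; inconclusive means mean below that limit but half or more replicates reach it; inactive means mean below it, under half of replicates reach it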;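 further: signal also drops with host cell toxicity which is not excluded here; 0% = plate median of DMSO wells and 100% = zero luminescence signal; higher percent means less beta-gal luminescence so fewer parasites; stock transfer was 50 nL into about 50 µL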
RanGTP-Imp inh – disruptors of Ran-importin-beta complex formation – biochemical, FRET, CFP-Ran, YFP-importin-beta, homogeneous, primary screen | cell-free CFP-Ran/YFP-importin-beta FRET ratio | inhibition, % (no concentration beside the values) | 300,000 compounds, 1.1% hits | AID 2216;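 active means most replicates above 15%; inconclusive means exactly half above 15%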;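 further: 0% = DMSO wells and 100% = Ran loaded with GDP instead of GTP; wells of about 40 µL received 100 nL stock; the first replicate is given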
B2AR ag – human beta-2 adrenergic receptor agonism by FAP. P07550. Am2.2-beta2AR cells, FAP receptor internalization, flow cytometry; reference of the scale not given here. response, % (concentration not given with the values). 340,000 compounds, 0.43% hits;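 active means response above a set limit, near 3 SD of response in nonfluorescent compounds, cut at about 42% in these data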;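 further: stock transfer was 100 nL into about 11 µL; a reference agonist was the positive control; negative values mostly stem from fluorescent compounds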
Target sequence (P07550 whole entry, looked up): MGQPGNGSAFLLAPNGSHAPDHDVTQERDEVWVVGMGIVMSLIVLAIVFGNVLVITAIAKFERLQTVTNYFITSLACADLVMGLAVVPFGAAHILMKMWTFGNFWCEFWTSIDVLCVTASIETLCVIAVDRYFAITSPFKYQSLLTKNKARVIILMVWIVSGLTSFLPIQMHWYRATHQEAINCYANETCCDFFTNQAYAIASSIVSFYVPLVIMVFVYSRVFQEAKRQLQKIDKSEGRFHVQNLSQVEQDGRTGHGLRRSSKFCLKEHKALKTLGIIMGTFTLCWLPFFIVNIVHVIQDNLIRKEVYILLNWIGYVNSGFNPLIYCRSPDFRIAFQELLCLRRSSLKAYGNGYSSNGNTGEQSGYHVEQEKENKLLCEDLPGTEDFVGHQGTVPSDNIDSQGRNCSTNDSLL
LANA-H2B inh – blocks KSHV LANA binding to histone H2A/H2B | cell-free LANA-H2A/H2B peptide, fluorescence polarization | inhibition, % (test concentration not listed) | 320,000 compounds, 0.6% hits | AID 2629; in the data active means inhibition mostly above about 10%, no sharp cut-off; inactive means mostly below about 6.7%;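 further: stock transfer was 7.5 nL into about 10 µL; 0% = median of vehicle wells and 100% = median of positive control wells; one replicate is shown; the record names a cut of 25% in any replicate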
Calb FLC – C. albicans growth modulation with fluconazole. growth inhibition, % (no concentration beside the values). 300,000 compounds, 0.57% hits. C. albicans CaCi-2 (fluconazole-resistant clinical isolate) + fluconazole, Alamar Blue growth, 48 h;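 active means most replicates above 75%; inconclusive means exactly half above 75%; inactive means most below 75%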;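 further: all wells also contain fluconazole at 8 µg/ml as a sub-toxic cotreatment; 0% = median of DMSO wells and 100% = median of geldanamycin control wells; wells of about 8 µL received 7.5 nL stock; the first replicate is given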
Starred values were filed as active, the others as inactive; i = inactive; ? = inconclusive; · = not tested or not shown. The order is random, and some 4.3% of all compounds hit somewhere here.

Start of the data: the first 4 entries as a preview:
nr	smiles	Beta apoptosis	UCH37 inh	Bfl-1 A1 inh	T cruzi repl
1	CCOC(=O)c1ccccc1NC(=O)CSc1nc2ccccc2c(=O)[nH]1	1	-2.3	0.9	0
2	Cc1ccc(Cn2ncc3c(N4CCN(CC#N)CC4)ncnc32)cc1	4	2.3	-0.3	3
3	COc1ccc(OC)c(S(=O)(=O)NNC(=S)Nc2ccc3c(c2)OCO3)c1	-2	1.4	-0.5	-10
4	COc1cc(OC)cc(C(=O)NC2CCN(C(=O)N3c4ccccc4Sc4ccccc43)CC2)c1	9	2.0	-0.1	44

nr	RanGTP-Imp inh	B2AR ag	LANA-H2B inh	Calb FLC
1	3.5	8	-1.0	-9
2	2.9	-6	2.1	4
3	?	-3	1.1	13
4	-3.6	-4	0.1	2

All compounds of this part, repeating the preview:
nr	smiles	Beta apoptosis	UCH37 inh	Bfl-1 A1 inh	T cruzi repl
1	CCOC(=O)c1ccccc1NC(=O)CSc1nc2ccccc2c(=O)[nH]1	1	-2.3	0.9	0
2	Cc1ccc(Cn2ncc3c(N4CCN(CC#N)CC4)ncnc32)cc1	4	2.3	-0.3	3
3	COc1ccc(OC)c(S(=O)(=O)NNC(=S)Nc2ccc3c(c2)OCO3)c1	-2	1.4	-0.5	-10
4	COc1cc(OC)cc(C(=O)NC2CCN(C(=O)N3c4ccccc4Sc4ccccc43)CC2)c1	9	2.0	-0.1	44
5	O=C(CC(O)(c1ccccc1)C(F)(F)F)c1cccs1 (stereo unspecified)	-8	-0.1	1.0	-1
6	CC(C)c1ccc(C2(C)NC(=O)N(CC(=O)NC3(C#N)CCCC3)C2=O)cc1 (stereo unspecified)	3	4.6	-1.1	·
7	COc1cccc(C(=O)Nc2ccc(F)c(F)c2F)c1	-2	1.7	-6.1	-7
8	CC(=O)N(CN1C(=O)CCC1=O)c1ccc(Cl)c(Cl)c1	-1	5.2	-0.3	-7
9	CC(=O)Nc1ccc2c(c1)nc1n2CCSC1	-3	-7.7	0.9	-7
10	Cc1cccc(C(=O)N[C@H](C(=O)Nc2nc3ccc(S(C)(=O)=O)cc3s2)C(C)C)c1	0	4.2	0.3	-10
11	CC(C)NC(=O)NC(=O)COC(=O)c1ncc(Cl)c(Cl)c1Cl	2	1.7	0.4	-4
12	COc1ccc(NC(=O)C2CCCN(S(=O)(=O)c3c(C)n[nH]c3C)C2)cc1OC (stereo unspecified)	-3	4.3	-0.9	8

nr	RanGTP-Imp inh	B2AR ag	LANA-H2B inh	Calb FLC
1	3.5	8	-1.0	-9
2	2.9	-6	2.1	4
3	?	-3	1.1	13
4	-3.6	-4	0.1	2
5	-0.4	1	-3.8	-20
6	·	3	0.3	·
7	5.2	13	3.3	3
8	-5.8	3	-7.7	0
9	2.2	-4	-7.9	-14
10	6.1	1	6.4	36
11	-2.7	-4	2.2	9
12	0.0	0	-3.8	35

Later entries:
nr	smiles	Beta apoptosis	UCH37 inh	Bfl-1 A1 inh	T cruzi repl
13	O=C(NNC(=O)C1C2C=CC(C2)C1C(=O)O)c1ccccc1O (stereo unspecified)	-6	·	0.5	3
14	CC(C)n1c(SCC(=O)Nc2nncs2)nnc1-c1ccco1	-3	·	-0.2	-5
15	CC(=O)N/N=C(\C)c1cccc(NC(=O)c2cccs2)c1	3	·	2.9	-2
16	Cc1ccc(OCC(=O)Nc2ccc(S(=O)(=O)N3CCOCC3)cc2)c([N+](=O)[O-])n1	-5	-2.7	-0.1	5
17	CCC1=C(OC(=O)N(CC)CC)N2C(=O)OC(=NCC3CC3)[C@]2(C)[C@H]2C1=CC[C@H]1C(=O)N(CC)C(=O)[C@H]12	-4	0.7	-0.7	-11
18	O=C(/C=C/c1cccc([N+](=O)[O-])c1)NCCN1CCOCC1	1	1.7	1.2	13
19	COc1cc(C(=O)OCCCOC(=O)c2cc(OC)c(OC)c(OC)c2)cc(OC)c1OC	6	0.0	0.1	6
20	CC(C)CN1C(=O)c2ccc(C(=O)Nc3ccccn3)cc2C1=O	6	-2.8	-2.3	-18
21	CCOC(=O)C1(C(F)(F)F)N=C(C(F)(F)F)Nc2ccc(F)cc21 (stereo unspecified)	16	3.5	-0.8	-16
22	O=C(Cn1ccc([N+](=O)[O-])n1)N1CCCCCC1	-5	5.3	0.8	-5
23	COc1cc(/C=N/Nc2cccc(C)c2)ccc1OC(=O)c1cccs1	2	·	-0.3	·
24	NCCN1CCN(CC(=O)N2c3ccccc3C(=O)Nc3cccnc32)CC1	-5	3.2	-0.5	-13

nr	RanGTP-Imp inh	B2AR ag	LANA-H2B inh	Calb FLC
13	0.2	-5	2.5	-8
14	-3.8	·	-7.6	3
15	-1.3	-20	0.4	9
16	-2.8	0	·	-5
17	-1.6	-8	3.5	-16
18	0.3	3	1.8	-3
19	-1.2	6	-0.6	7
20	-0.1	-7	-0.4	4
21	0.4	1	-6.8	8
22	-2.4	-2	-2.3	5
23	·	0	-2.1	·
24	-3.6	0	-2.5	11

(listing goes on)
nr	smiles	Beta apoptosis	UCH37 inh	Bfl-1 A1 inh	T cruzi repl
25	CCOC(=O)c1nnn(-c2nonc2N)c1CN(CC)CC	-2	2.1	-0.3	-4
26	CC1=CN2C(=NC(=O)CC2(C)C(=O)N(CC(=O)NC2CCCC2)Cc2ccc(Cl)cc2)C=C1 (stereo unspecified)	8	i	-0.1	-5
27	CCOc1cc(C(=O)OCC(=O)Nc2ccc(SC(F)F)cc2)cc(OCC)c1OCC	1	3.8	1.2	24
28	COC(=O)c1sc(N)nc1C(C)(C)C	-4	1.3	-0.1	-7
29	CCCCn1c(O)c(N=NC(=O)Cn2c(C(F)(F)F)nc3ccccc32)c2ccccc21	6	-0.1	0.2	18
30	O=[N+]([O-])c1ccc(-c2cnc(SCc3ccccc3Cl)[nH]2)cc1	11	0.1	-0.2	18
31	Cc1ccc(-c2nc(C(=O)NCCCN3CCOCC3)cc3c2[nH]c2ccccc23)cc1	·	-43	-0.7	57*
32	COc1cc2c3c(c1OC)C1(C=CC(=O)C=C1)CC3N(C(C)=O)CC2 (stereo unspecified)	5	3.7	0.6	-14
33	CCS(=O)(=O)N1CCN(c2cc3c(cc2[N+](=O)[O-])n(C)c(=O)n3C)CC1	-4	8.7	0.4	-5
34	CCN(CC)S(=O)(=O)c1ccc(C(=O)NCCCn2ccnc2)cc1	-3	5.3	1.0	-4
35	O=C(O)/C=C/c1cn(Cc2ccccc2)nc1-c1cccs1	4	-7.3	-0.3	-6
36	Cc1ccc(S(=O)(=O)Nc2ccccc2/C=N/c2nc3ccccc3n2C)cc1	4	·	-0.1	·

nr	RanGTP-Imp inh	B2AR ag	LANA-H2B inh	Calb FLC
25	-0.4	1	1.0	-4
26	-0.4	-5	5.4	-3
27	-0.2	-1	-11	-18
28	-0.4	4	-0.6	-2
29	0.3	0	-5.1	11
30	-5.0	-4	-4.5	39
31	8.3	-26	4.9	7
32	-1.5	2	1.9	4
33	-0.7	-1	-3.4	-3
34	-2.2	-1	-4.3	21
35	4.6	-7	4.5	49
36	·	13	7.8	·

More structures:
nr	smiles	Beta apoptosis	UCH37 inh	Bfl-1 A1 inh	T cruzi repl
37	CN1C(=O)NC(c2ccccc2)C2=C1CN(Cc1ccccc1)C2=O (stereo unspecified)	-1	·	1.6	2
38	CCC(=O)NNC(=O)c1cc(COc2cc(Cl)cc(Cl)c2)on1	-6	2.6	-0.3	9
39	COc1cc(C(C(=O)NC(C)(C)C)N(Cc2ccccc2)C(=O)c2cnccn2)cc(OC)c1OC (stereo unspecified)	3	1.3	0.0	-10
40	COC(C(=O)NNC(=O)Cc1ccc(Cl)cc1)c1ccccc1 (stereo unspecified)	-2	3.4	0.6	-14
41	C=CCNC(=O)COC(=O)c1cc(S(=O)(=O)N2CCOCC2)ccc1N1CCCCC1	-2	2.6	1.3	3
42	COc1ccc(-c2cc(C(=O)N3CC(C)CC(C)C3)c3ccccc3n2)cc1 (stereo unspecified)	-9	-89	1.0	14
43	Cc1ccccc1C(=O)OC(C)CN1CCOCC1 (stereo unspecified)	0	1.9	-0.1	-3
44	COc1nc(NC(C)(C)C)nc(Oc2ccc(=O)n(-c3ccccc3)n2)n1	-1	4.0	0.2	-10
45	CCOc1ccccc1C(=O)Nc1cnn(Cc2ccc(F)cc2)c1	·	2.5	0.1	6
46	COc1ccc(-c2csc(/C(C#N)=C(\O)CSc3nccn3C)n2)cc1OC	2	·	-0.6	-4
47	CCOCCCNCC(O)c1ccccc1 (stereo unspecified)	-12	-1.4	0.4	-13
48	OC1(c2ccc(OC(F)F)cc2)CSC(=Nc2cccnc2)N1Cc1ccco1 (stereo unspecified)	·	-3.0	·	18

nr	RanGTP-Imp inh	B2AR ag	LANA-H2B inh	Calb FLC
37	0.2	·	-4.2	1
38	-1.7	9	-0.5	-4
39	0.4	0	-2.7	-1
40	4.2	-7	-1.7	6
41	?	0	-4.9	-3
42	·	10	6.2	5
43	-3.3	6	-1.9	7
44	0.6	-7	-6.7	-14
45	4.2	-12	3.0	15
46	-0.3	2	-7.3	2
47	2.5	-2	·	31
48	0.7	9	·	19

(cont.)
nr	smiles	Beta apoptosis	UCH37 inh	Bfl-1 A1 inh	T cruzi repl
49	CCN(CC)C(=O)c1[nH]cnc1C(=O)NC1CCN(C(=O)OC(C)(C)C)CC1	-4	0.5	0.0	·
50	Nc1ccccc1-n1c(=O)n(Cc2ccccc2F)c(=O)c2[nH]cnc21	-4	3.3	-0.8	-1
51	Nc1nc(Cl)cc(NCCc2ccccc2)n1	1	4.0	0.2	-24
52	O=C(c1ccccc1F)N1CCCC(C(=O)N2CCN(c3ccccc3)CC2)C1 (stereo unspecified)	-3	0.0	0.4	14
53	Cc1noc(NC(=O)c2cccc(C(F)(F)F)c2)c1Cl	0	0.4	0.5	37
54	CCOc1cc(C(=O)O)cc(Cl)c1OCC#N	-1	-0.2	-0.1	-2
55	CCC(C)NC(=O)C(Cc1ccccc1)NS(=O)(=O)c1ccc2c(c1)CCC(=O)N2 (stereo unspecified)	-5	-1.4	0.9	-22
56	CN(C)S(=O)(=O)c1cccc(NC(=S)NN=C(Cc2ccccc2)Cc2ccccc2)c1	1	2.8	-1.3	-2
57	Cn1c(NC(=O)c2ccco2)cc(=O)n(C)c1=O	4	8.8	0.0	-7
58	Cc1nc(SCCOc2ccccc2)[nH]c(=O)c1Cc1ccccc1	3	3.2	2.0	5

nr	RanGTP-Imp inh	B2AR ag	LANA-H2B inh	Calb FLC
49	·	-1	1.4	·
50	2.7	-1	-0.2	1
51	5.2	·	-1.0	-4
52	-0.2	2	2.2	8
53	-1.6	13	-3.7	?
54	6.7	-7	-2.8	2
55	-0.4	-4	0.7	4
56	-4.1	-7	-3.3	69
57	6.8	7	-1.6	-1
58	-1.6	15	-0.6	-10
